Sfp PPTase inh – Sfp phosphopantetheinyl transferase inhibition; Q9F4F7; Biochemical Sfp PPTase activity, qHTS; Potency, µM, for the others: max response, negative = inhibition, usual class: inhibitors; 310,000 tested, 3.5% active; AID 1490; active = well fitted inhibition curve with a large enough effect; inconclusive = small, poorly fitted or top-dose-only effect, or another doubt; inactive = no such curve, though single readings can be large or run the other way;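 also: the enzyme is Sfp with the accession as filed and its product quenches rhodamine fluorescence; potency is read from the fitted curve at half-maximal effect; 0% = enzyme reaction without inhibitor and -100% = no enzyme wells; top concentration of the series not given in the record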
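Reaction rates are the 30-min fluorescence difference (ex 525, em 598 nm) in wells containing 15 nM Sfp, 5 uM rhodamine-CoA and 12.5 uM BHQ-2-YbbR at pH 7.6 with 10 mM MgCl2.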
Menin-MLL FL inh – displaces fluorescein MLL peptide from human menin. Fluorescence polarization, fluorescein-MLL peptide displacement from menin. FP activity change, % at 61.4 µM. 290,000 tested, under 10 active; inconclusive = falling polarisation curve, or a change in total fluorescence; inactive = total fluorescence flat and polarisation flat or rising; no compound was filed as active; the % refers to the polarisation; negative = inhibition;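 also: % of control where 0% means no effect; inhibitors lower the polarisation; unlabelled MLL peptide was the positive control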
gsp ag – gsp mutant agonism; gsp mutant cells, cAMP HTRF, 30 min; control for the full effect not named in the record; 340,000 tested, 0.13% active; Potency, µM (top dose mostly 76.9 µM), for inactives: at the top dose activation (cAMP increase), usual class: activators; AID 624287; active = well fitted activation curve with a large enough effect; inconclusive = small, poorly fitted or top-dose-only effect, or another doubt; inactive = no such curve, though single readings can be large or run the other way; cell line not stated here;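 also: phosphodiesterase inhibitor Ro 20-1724 added with compounds to block cAMP breakdown; potency is read from the fitted curve at half-maximal effect; nearly all actives have a fitted effect of over 60% in size; about a fifth of the inactives were tested at one dose only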
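Cells in DMEM/10% FBS with G418 were pretreated with compounds in DMSO plus […] (300 uM stock) for 30 min at 37C. cAMP was measured by HTRF (cAMP-d2 plus anti-cAMP antibody-K) after 30 min at room temperature.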
TRPML1 blocker – human mucolipin-1 channel inhibition; Q9GZU1; TRPML1-inducible cells, Ca2+ dye fluorescence, FDSS; stronger effect = lower value; inhibition of EC80 agonist-evoked calcium signal; activity change, negative = inhibition, % (concentration not given with the values); 390,000 tested, 0.02% active; in the data active means activity change below about -50%; inconclusive means about -30% to -50%; inactive means above about -30%;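 also: stimulus is agonist 54-4 at its EC80 concentration; % is scaled to controls: 0 for no effect and ±100 for the full control effect; compound concentration not given in the record; the text of the record puts the active cut at -80%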
Target sequence (Q9GZU1 whole entry, looked up): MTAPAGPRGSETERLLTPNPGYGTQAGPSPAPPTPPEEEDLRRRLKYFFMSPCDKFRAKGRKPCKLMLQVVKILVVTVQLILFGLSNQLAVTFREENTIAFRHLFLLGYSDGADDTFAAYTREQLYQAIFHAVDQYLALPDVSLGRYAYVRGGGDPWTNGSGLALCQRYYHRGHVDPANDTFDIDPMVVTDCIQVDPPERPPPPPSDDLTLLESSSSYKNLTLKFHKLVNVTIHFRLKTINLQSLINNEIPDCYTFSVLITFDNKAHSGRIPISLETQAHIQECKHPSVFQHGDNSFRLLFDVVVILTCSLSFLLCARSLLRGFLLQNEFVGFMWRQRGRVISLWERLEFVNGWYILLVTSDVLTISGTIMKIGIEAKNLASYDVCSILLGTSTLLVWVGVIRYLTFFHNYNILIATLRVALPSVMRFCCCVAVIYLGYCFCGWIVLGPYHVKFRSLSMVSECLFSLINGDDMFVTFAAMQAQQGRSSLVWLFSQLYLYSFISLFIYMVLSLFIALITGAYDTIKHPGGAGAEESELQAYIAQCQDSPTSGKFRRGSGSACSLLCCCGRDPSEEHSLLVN
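Tet-induced TRPML1-DL cells loaded with Ca8 no-wash calcium dye were read kinetically on FDSS. Compound addition was followed by EC80 agonist 54-4 (4 uM final); inhibition was read over 110 s.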
gsp antag – gsp mutant antagonism; Potency, µM (series often up to 76.9 µM), for inactives: at the highest dose activity change, negative = inhibition, hits mostly inhibitors; 340,000 tested, 0.4% active; gsp-mutant cells, cAMP HTRF, 30 min; control for the full effect not named in the record; active = falling curve of any shape with a large fitted effect; inconclusive = falling curve, mostly with a smaller effect; inactive = flat or rising curve; cell line not stated here;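 also: intracellular cAMP measured with PDE inhibitor Ro 20-1724 present during compound exposure; potency is read from the fitted curve at half-maximal effect; % is scaled to controls: 0 for no effect and ±100 for the full control effect; nearly all actives have a fitted effect of over 65% in size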
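Cells in G418 medium, seeded 16-24 h, 37C; buffer exchange to DPBS + 1 mM CaCl2, 0.5 mM MgCl2, 0.05% BSA; cpds in DMSO + […] (300 uM stock), 30 min 37C; HTRF cAMP detection.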
TRPV1 PAM – potentiators of human vanilloid receptor 1 (TRPV1) | potentiation, % at 8.33 µM | TRPV1-expressing cells, Fluo-8 calcium influx, capsaicin EC20 potentiation; host cell line not named in the record; control for the full effect not named in the record | Q8NER1 | AID 540277 | 320,000 tested, 0.02% active; active means potentiation above 80%; inconclusive means 30% to 80%; inactive means below 30%; also: 0% is about no effect
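Cells expressing TRPV1 were dye-loaded with Fluo-8 and read kinetically: 10 s baseline, 3 min after compound (agonist portion), then 2 min after EC20 capsaicin (allosteric enhancer portion). Calcium-bound dye fluorescence at 480/520 nm.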
ClpP mod – qHTS Assay for Activators of ClpP; purified B. subtilis ClpP, FRET peptide cleavage, 20 min; Potency, µM (doses to about 57.5 µM), without a hit: top-dose activity change, negative = active; 340,000 tested, 1.9% active; AID 651965, 2013; active = well fitted falling curve with a large enough effect; inconclusive = small, poorly fitted or top-dose-only effect; inactive = no such curve, though single readings can be large or run the other way; also: potency is read from the fitted curve at half-maximal effect; the source files actives as falling curves though it sought activators and does not explain the sign; nearly all actives have a fitted effect of over 65% in size; many hits overshoot -100%
Target sequence (P80244 whole entry, looked up): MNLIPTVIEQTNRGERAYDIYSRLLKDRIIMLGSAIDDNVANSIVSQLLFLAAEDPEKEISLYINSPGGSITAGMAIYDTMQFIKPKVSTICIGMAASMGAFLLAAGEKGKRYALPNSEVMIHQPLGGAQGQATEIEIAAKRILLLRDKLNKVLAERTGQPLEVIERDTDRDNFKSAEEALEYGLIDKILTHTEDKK
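ClpP 10 microg/mL final, pH 8 Tris/KCl buffer with BSA, glycerol, Tween-20; compound pinned in; FRET-FV substrate; RT 20 min; Ex320/Em430; ΔFRET vs ADEP 5.8 microM, DMSO, no enzyme.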
Numbers without * were called inactive; ? = inconclusive; . = not tested or not shown; & = joins results of further samples; [ ] = another dose, or the depositor's remark.

SMILES	gsp ag	TRPV1 PAM	ClpP mod	Menin-MLL FL inh	TRPML1 blocker	Sfp PPTase inh	gsp antag
CCN(CC)c1ccc(-c2nnc(SCC(=O)N(CCOC)c3c(N)n(CC(C)C)c(=O)[nH]c3=O)o2)cc1	18%	-5	-19%	.	-1	.	-2%
Cc1nc(N2CCCC2C(=O)O)c2oc3ccccc3c2n1 (stereo not given)	9%	.	?	1.5	4	20%	12%
Cc1cccc2c(CCNC(=O)c3ccc([N+](=O)[O-])cc3)c[nH]c12	30%	12	1.4%	1.8	32	8%	-12%
CN1CCOC(=O)/C1=N/Nc1cc(Cl)ccc1Cl	-27%	-12	.	-2.5	9	?	-13%
CN(C)S(=O)(=O)c1cccc(NC(=O)c2cccc(NS(=O)(=O)c3ccccc3)c2)c1	-51%[inhibitor]	?	-5.7%	-0.5	-5	29%	?
O=C(CCc1nnc(CCC2CCCCC2)o1)NCCc1cccnc1	-21%	?	-1.5%	-6.4	3	1%	-6%
CCCCNc1nc2c(c(=O)n(Cc3ccccc3)c(=O)n2C)n1C	-1%	6	-0.6%&0.6%	7.4	7&1	1%	3%
CCO[C@H]1OC(C(=O)Nc2ccccc2)=C[C@@H](c2coc3ccccc3c2=O)[C@@H]1CCCO	.	19	0.3%	0.4	2	10%	-4%
COc1cc2ccccc2cc1C(=O)NC(=S)Nc1cccc(C(=O)O)c1	4%	-8	.	-2.5	-11	2%	-39%
COc1ccc(CCNC(=O)c2ccc(CNS(=O)(=O)c3cc(C)ccc3C)cc2)cc1OC	8%	0	-1.0%	-1.9	6	3%	?
COc1cc(NC(=O)C2CCN(c3cnccn3)CC2)cc(OC)c1	-6%[15.4 µM]	-15	-17%	.	-15&-24	10%	-9%
C/C(=N\NC(=O)c1cccc(F)c1)c1cccc(NC(=O)c2ccc(F)cc2)c1	-4%[15.4 µM]	-1	.	-1.5	1	10%	-3%
CCN1CCN(c2ccc(S(=O)(=O)N3CCOCC3)cc2NC(=O)C(C)Oc2ccc(F)cc2)CC1 (stereo not given)	42%	-7	0.8%	.	31	.	7%
CCC(=O)NC(C)C(c1cccs1)N1CCOCC1 (stereo not given)	-73%[inhibitor]	.	-3.3%	.	-4	.	12%
Cc1ccc(NC(=O)NC2(C(=O)NCc3ccco3)CCCCC2)cc1	-12%	-9	-0.8%	0.6	-14	10%	2%
O=C(NCCNC(=O)c1cc(Cl)ccc1Cl)c1cnccn1	19%	6	-2.7%	2.6	0	19%	14%
CC1(C)CC(=O)C=C(Nc2ccccc2C#N)C1	-6%	?	-2.3%	-3.3	3	-25%	-5%
Cc1cccc2cc(C#N)c(SCC(=O)NCc3cccs3)nc12	?	11	-1.4%	6.0	8	-6%	-5%
NCCc1c(C(=O)O)[nH]c2ccc([N+](=O)[O-])cc12	?	-11	0.3%	-0.8	.	7%	8%
C=CCSc1n[nH]c(-c2ccc(OCCCC)cc2)n1	0%	3	1.5%	-0.4	13	15%	-25%
O=C(Cn1cc([N+](=O)[O-])ccc1=O)NCC(=O)Nc1ccc(F)c(F)c1F	19%	.	.	.	-9	.	2%
Cc1ccc(C(=O)c2cn(Cc3ccc(Cl)cc3)c3nc(C)ccc3c2=O)cc1	.	-4	0.8%	.	14	.	.
O=C(Nc1ccccc1Cc1ccccc1)C1CC(=O)N(c2ccc3c(c2)OCCO3)C1 (stereo not given)	7%	-3	-1.0%	2.9	-11	-16%	7%
NC(=S)N/N=C1\CC(n2nnn(-c3cccc(Cl)c3)c2=S)C2COC1O2 (stereo not given)	-5%[15.4 µM]	-2	.	4.1	-2	-13%	-10%
C[C@H](CO)N1C[C@H](C)[C@@H](CN(C)Cc2ccccn2)Oc2ncc(-c3ccccc3)cc2C1=O	-4%	.	-2.8%	.	-9	.	.
O=C(CNC(=O)c1ccco1)OCc1ccccc1F	?	.	.	.	5	.	-4%
Nc1c(C(=O)OCC(=O)Nc2ccc(Cl)cc2[N+](=O)[O-])[nH]c(=O)[nH]c1=O	22%	-13	-1.8%	3.2	7	?	-7%
COc1cc(OC)cc(C(=O)OCC(=O)Nc2ccc3[nH]c(=O)[nH]c3c2)c1	-12%[15.4 µM]	24	.	.	19	.	8%
COCCCN1C(=O)N(c2ccccc2)C(=O)C1CC(=O)Nc1ccc(F)cc1 (stereo not given)	?	7	-0.2%&0.4%	-0.7	-3&-22	12%	16%
COCCCn1nnnc1SCC(=O)N1CCCC1	-15%	-9	1.2%	3.8	3	11%	10%
O=C(NCC(c1ccccc1Cl)N1CCCC1)c1ccc(N2CCCC2=O)cc1 (stereo not given)	-7%[15.4 µM]	?	.	.	-8	.	3%
S=C(Nc1cccnc1)NC1CC2CCC1C2 (stereo not given)	?	-10	0.6%	.	-1	-1%	16%
CCOC(=O)c1c(C)n(C)c2ccc(OCC(O)CNCCc3ccccc3)cc12 (stereo not given)	-6%	-7	-3.5%	-11	8	-6%	9%
O=C(C1=C[C@H](c2csc3ccccc23)C[C@H](OCCCCO)O1)N1CCN(Cc2ccc3c(c2)OCO3)CC1	.	2	0.7%	3.3	11	-4%	-23%
N#Cc1nc(COc2cccc(Cl)c2)oc1N1CCN(c2ccccc2)CC1	3%	-1	-4.4%	2.3	14	4%	0%
CCCC1(c2ccccc2)NC(=O)N(CC(=O)Nc2cc(S(=O)(=O)N3CCOCC3)ccc2Cl)C1=O (stereo not given)	3%[15.4 µM]	-2	-0.2%	-1.0	-18	12%	1%
COC(=O)c1[nH]c2ccc(F)cc2c1NS(=O)(=O)c1ccc(OC)cc1OC	-42%[inhibitor]	-15	-7.5%	-0.1	-7	2%	-23%
Cc1ccccc1C(=O)NC1CCN(C(=O)N2CCOCC2)CC1	-58%[inhibitor]	28	?	2.1	-4	21%	3%
Cc1ccc2c(c1)COc1c3ccc(C(=O)NC(C)C)cc3nn1-2	.	0	3.4%	-1.4	1	0%	-17%
O=C(NN=Cc1c(O)ccc2ccccc12)c1ccc2c(c1)OCO2	?	.	-2.2%	.	-21	.	5%
COc1ccc(Oc2nc(OC)cc(OC)n2)cc1	12%[15.4 µM]	7	.	5.0	-13	-17%	8%
Cc1ccc(/C([O-])=C(/C(=S)NCc2ccccc2)[n+]2ccccc2)cc1[N+](=O)[O-]	4%	0	.	-2.2	27	-26%	-3%
Cc1ccc(C)n1NC(=O)c1cccc(Cl)c1	0%	5	7.7%	4.2	-24	9%	-1%
COc1ccccc1CCn1c(N)cc(=O)[nH]c1=O	?	8	-2.6%	1.5	9	15%	2%
COC(=O)c1ccc(C)c(NC(=O)CCSc2ccc(C)cc2)c1	-2%	-4	-1.8%	1.5	-13	14%	-1%
COC(=O)c1c(NC(=O)/C=C/c2ccco2)sc2c1CCC2	-29%	13	-2.3%	17	3	-6%	-2%
CN(CCNC(=O)c1c[nH]c2c1ccc1ccccc12)CCNC(=O)c1c[nH]c2c1ccc1ccccc12	-3%	.	28µM*	.	11	.	4%
O=C1c2cccc3cccc(c23)N1CN1CCN(c2ccccn2)CC1	?	0	11%	0.1	6	7%	9%
CCOc1ccc(NS(=O)(=O)c2ccc3c(c2)CCN3C(=O)CCC(=O)O)cc1	25%	-6	-1.7%	1.3	-8	12%	-5%
Cc1cccc(S(=O)(=O)Nc2ccc3c(c2)OCCO3)c1	-14%	2	-3.0%	-6.1	-14	9%	10%

Some of these compounds in order of formula weight, low to high.
SMILES	gsp ag	TRPV1 PAM	ClpP mod	Menin-MLL FL inh	TRPML1 blocker	Sfp PPTase inh	gsp antag
COc1ccccc1CCn1c(N)cc(=O)[nH]c1=O	?	8	-2.6%	1.5	9	15%	2%
COc1ccc(Oc2nc(OC)cc(OC)n2)cc1	12%[15.4 µM]	7	.	5.0	-13	-17%	8%
CCOc1ccc(NS(=O)(=O)c2ccc3c(c2)CCN3C(=O)CCC(=O)O)cc1	25%	-6	-1.7%	1.3	-8	12%	-5%

(cont.)
SMILES	gsp ag	TRPV1 PAM	ClpP mod	Menin-MLL FL inh	TRPML1 blocker	Sfp PPTase inh	gsp antag
Cc1cc(Nc2ccc(Br)cc2)nc(-c2ccccc2O)n1	-1%	18	-6.8%	1.3	-5	-8%	-12%
O=C(NC1CCCCC1)N1CCN(S(=O)(=O)c2ccc(F)cc2)CC1	18%[15.4 µM]	0	.	-0.7	-7	-4%	4%
Cc1ccc(C(=O)N(C)c2nnc(-c3ccncc3)s2)cc1	4%[15.4 µM]	3	.	0.4	-8	-4%	?
CC(=O)Nc1cc(C(=O)N2CCCC2)ccc1Sc1ccc(C)cc1	17%	-13	-1.8%	0.7	15	?	20µM*
O=C1N(Cc2cccc(Cl)c2)C[C@@H]2C[C@@H](c3ccco3)N3CCC[C@@]123	8%	12	.	5.8	0	11%	16%
COc1ccc(NC(=O)COC(=O)Cc2ccsc2)c(OC)c1	?	.	.	.	-1	.	-1%
O=C1OC(c2ccc(Cl)cc2)=N/C1=C\C=C\c1ccco1	7%	9	3.2%	3.4	13	45µM*	4%
O=C(CN(c1cccc([N+](=O)[O-])c1)S(=O)(=O)c1ccccc1)NCc1ccccc1	-12%	-4	0.3%	3.6	-3	7%	9%
CCCCn1c(SCC(=O)NC(C)(C)C)nnc1-c1ccco1	2%	-12	-1.9%	-0.5	11	7%	6%
NC(=O)Cc1nc2scc(-c3ccccc3)c2c(=O)[nH]1	?	9	.	14	17	79µM*	-3%
CC(=O)OC1COC(n2c(O)c(N=NC(N)=S)c3ccccc32)C(OC(C)=O)C1OC(C)=O (stereo not given)	?	10	1.4%	8.2	-10	4%	-9%
CC(=O)Nc1ccc(S(=O)(=O)N2CCCC2C(=O)Nc2ccc(F)cc2)cc1 (stereo not given)	29%	6	-0.9%	.	8	12%	4%
Cc1ccc(S(=O)(=O)N2CCN(C(=O)CN3CCOCC3)C2C(C)C)cc1 (stereo not given)	2%	9	1.2%	-1.7	-4	12%	9%
CCCn1c(SCC(=O)Nc2nnc(CC)s2)nnc1-c1ccncc1	3%	2	.	1.7	-6	-8%	3%
CCOC(=O)c1cccc(NC(=O)CCCn2c(=O)c3cccn3c3cccnc32)c1	?	12	-5.8%	.	8	-3%	1%
